CSC inhib – blocks cancer stem cells; inhibition, % at 7.5 µM; cancer stem cell-like cells viability, luminescence; AID 2717; 300,000 tested, 1.1% active;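 active = mean at 75% or more and at least half the replicates too; tested in HMLE shEcad cells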;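 also: 0% = median of negative and 100% = median of positive control wells; the first replicate is given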
MT1-MMP act inh – MT1-MMP (human) activation inhibition; P50281; HT1080 RFP-PRO-GFP cells, GFP/RFP ratio fluorescence, overnight; percent of plate control window, DMSO zero; GFP/RFP ratio change, % at 20 µM; 360,000 tested, 0.061% active;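 active = GFP/RFP ratio change of at least 30% with cell ATP level not reduced by more than half and red fluorescence within 50% of control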; also: strong numbers were not always called active
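Material – HT1080 RFP-PRO-GFP cells · Control set – DMSO wells and RFP-L50D-GFP cells · Incubation – overnight cell settling, then overnight compound exposure, 37 °C, 5% CO2 · Compound dosing – single-point 20 µM compound, 1% DMSO · Read-out – GFP/RFP fluorescence ratio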
UUG fidelity – alters start codon recognition fidelity in yeast; S. cerevisiae UUG-firefly luciferase reporter, luminescence/redox ratio; activity score, % at 18.7 µM; 350,000 tested, 0.13% active; AID 602363;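 active = replicate mean at a twofold rise or more, about +100% in these data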;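 also: firefly luciferase made from a UUG start codon reports start codon fidelity; reporter light over untreated wells divided by growth signal over untreated wells; some hits fall short of that in this replicate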
PABP FP inh – PABP-poly(A) binding inhibition; PABP-poly(A) RNA binding, fluorescence polarization; inhibition, % at 35 µM; 290,000 tested, 1% active; AID 2014;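 active = 50% or more with normal probe brightness, or confirmed in later tests; about a fifth of its hits are not listed in these tables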;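 also: calls also rest on retests at 20 µM and on dose response follow-up; controls were probe without protein and protein plus probe with vehicle; some compounds called inactive have numbers as strong as hits; many hits fall short of the cut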
Target sequence (P11940 whole entry, looked up): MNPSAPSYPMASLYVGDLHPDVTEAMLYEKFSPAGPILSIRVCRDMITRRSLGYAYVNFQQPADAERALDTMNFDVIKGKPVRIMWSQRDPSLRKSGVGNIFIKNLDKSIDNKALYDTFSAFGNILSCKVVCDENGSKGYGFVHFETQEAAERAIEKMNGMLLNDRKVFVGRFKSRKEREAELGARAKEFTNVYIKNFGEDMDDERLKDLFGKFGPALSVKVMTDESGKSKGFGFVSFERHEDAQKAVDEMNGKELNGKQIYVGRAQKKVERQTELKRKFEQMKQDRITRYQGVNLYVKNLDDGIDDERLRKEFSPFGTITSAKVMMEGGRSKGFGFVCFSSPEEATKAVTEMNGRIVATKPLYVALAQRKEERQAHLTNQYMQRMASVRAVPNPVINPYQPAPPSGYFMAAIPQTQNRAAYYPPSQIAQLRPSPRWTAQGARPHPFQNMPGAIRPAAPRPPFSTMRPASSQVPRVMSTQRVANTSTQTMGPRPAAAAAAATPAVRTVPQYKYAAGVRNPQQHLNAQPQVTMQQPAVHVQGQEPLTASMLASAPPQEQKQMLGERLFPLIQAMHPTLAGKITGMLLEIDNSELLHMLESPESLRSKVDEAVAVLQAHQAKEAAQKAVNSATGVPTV
eIF4H inh – inhibitors of RNA binding by human eIF4H; inhibition, % at 35 µM; 290,000 tested, 0.94% active; eIF4H fluorescence polarization binding assay; AID 2012;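 active = 50% or more with normal probe brightness, or confirmed in later tests; about a fifth of its hits are not listed in these tables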;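 also: calls also rest on retests at 20 µM and on dose response follow-up; 0% = protein and probe with vehicle and 100% = probe without protein; strong numbers were not always called active; many hits fall short of the cut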
Rce1 inh – inhibitors of yeast Ras-converting enzyme; Q03530; AID 2563; yeast membranes, quenched prenylated peptide cleavage fluorescence; calls only; 290,000 tested, 0.27% active;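 active = fall in fluorescence gain of 50% or more versus controls, with final raw signal at or below 3038400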;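 also: plate controls were neutral control wells for no effect and wells lacking membranes for full effect; tested at 10 µM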
Env fusion inh – blocks HIV Env-driven cell-cell fusion; HeLa-JRFL Env/CEM21 cell fusion, luciferase; inhibition, % at 12.3 µM; 360,000 tested, 1.1% active;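 active = mean replicate inhibition score of at least 50 and every replicate individually at or above 50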;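 also: 0% = plate neutral controls and 100% = maraviroc near 300 nM; one replicate is shown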
eIF4H inh retest – further read-out of eIF4H inh, marked with its call; inhibition, %; compound at 20 µM; confirmation average;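 mean of two retest wells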
PABP FP inh retest – further read-out of PABP FP inh, marked with its call; inhibition, %; compound at 20 µM; confirmation repeats;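 mean of two retest wells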
MT1-MMP act inh RFP – recorded beside MT1-MMP act inh, whose call it bears; RFP signal change, %; measured here: RFP expression control read;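 0 = vehicle wells; hits needed this value within 50% of zero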
Active calls of the source: *; i = inactive; / = no result given.

SMILES	CSC inhib	MT1-MMP act inh	MT1-MMP act inh RFP	UUG fidelity	PABP FP inh	eIF4H inh	Rce1 inh	Env fusion inh	others
O=C(c1cccc(N2C(=O)C3C4C=CC(C4)C3C2=O)c1)N1CCN(c2ccccc2Cl)CC1 (centres undefined)	-1	-2	-3	2	-2	-4	i	8
COc1ccc(/C=N/NC(=O)CCCC(=O)NC2CCCCC2)cc1	-17	-1	3	-21	6	6	i	-54
CCOC(=O)c1c(C)[nH]c(C(=O)OCC(=O)Nc2cccnc2Cl)c1C	1	-6	-5	/	/	/	i	0
COc1ccc(N2CSC3=C(C#N)C(c4cc(OC)c(OC)cc4OC)CC(=O)N3C2)c(OC)c1 (centres undefined)	-11	0	8	-2	36	22	i	-135
O=C(Nc1ccccc1)NC1(C(=O)NCc2ccco2)CCCCC1	-2	0	6	-24	-9	1	i	-16
O=C1NC(=S)S/C1=C1\Sc2ccccc2N1CCCS(=O)(=O)O	-14	0	1	-18	48	6	i	/
CCn1nnnc1SCC(=O)N1CCOCC1	5	-4	5	7	4	-1	i	/
O=C(CCc1ccccc1)Nc1nc2ccc(S(=O)(=O)N3CCOCC3)cc2s1	/	3	3	54	1	-1	i	/
O=C(O)COc1ccc(-c2nnn(Cc3ccccc3F)n2)cc1	-11	2	2	-17	2	6	i	/
COc1ccc(CCC(=O)NNC(=O)c2cccs2)cc1	4	-2	5	-8	/	/	/	/
C/C=N\NC(=O)CNC(=O)CNC(=O)c1ccccc1	-4	4	6	/	-3	1	i	6
CCC(C)Nc1cc(C)c(C#N)c2nc3ccccc3n12 (centres undefined)	-7	-1	-3	-15	64	86	i	14	eIF4H inh retest=-5;PABP FP inh retest=12
O=C(Nc1cccc(C(=O)N2CCOCC2)c1)c1ncn[nH]1	9	-2	-1	-20	0	5	i	/
CC1CCN(CCCNC(=O)c2n[nH]c(=O)c3ccccc23)CC1	-17	1	3	-15	-1	-6	i	-40
COc1ccccc1Nc1nc(-c2sc(NC(=O)C(C)(C)C)nc2C)cs1	23	11	2	-12	-9	2	i	31
CCNC(=O)Cc1ccc(Br)cc1	2	3	5	-8	-4	-6	i	/
CCCOc1ccc(N2C(=O)CC(N(CCOC34CC5CC(CC(C5)C3)C4)C(C)=O)C2=O)cc1 (centres undefined)	-11	-3	-7	-6	-6	13	i	57*
COc1cccc(CNC(=O)CCCn2nc(C)c3c(C)n(-c4ccccc4)nc3c2=O)c1	-23	-1	-2	-12	2	-24	i	4
Cc1cccc(NC(=S)NC(=O)CCc2ccccc2)c1	32	3	6	-18	4	1	i	/
N=c1c2c(-c3ccccc3)c(-c3ccccc3)n(Cc3ccco3)c2ncn1CCN1CCOCC1	-4	-3	-12	-7	-14	-10	i	-205

Quoted at random: 6 compounds from above, in no set order.
SMILES	CSC inhib	MT1-MMP act inh	MT1-MMP act inh RFP	UUG fidelity	PABP FP inh	eIF4H inh	Rce1 inh	Env fusion inh	others
C/C=N\NC(=O)CNC(=O)CNC(=O)c1ccccc1	-4	4	6	/	-3	1	i	6
O=C(c1cccc(N2C(=O)C3C4C=CC(C4)C3C2=O)c1)N1CCN(c2ccccc2Cl)CC1 (centres undefined)	-1	-2	-3	2	-2	-4	i	8
O=C(O)COc1ccc(-c2nnn(Cc3ccccc3F)n2)cc1	-11	2	2	-17	2	6	i	/
O=C(CCc1ccccc1)Nc1nc2ccc(S(=O)(=O)N3CCOCC3)cc2s1	/	3	3	54	1	-1	i	/
CCOC(=O)c1c(C)[nH]c(C(=O)OCC(=O)Nc2cccnc2Cl)c1C	1	-6	-5	/	/	/	i	0
O=C1NC(=S)S/C1=C1\Sc2ccccc2N1CCCS(=O)(=O)O	-14	0	1	-18	48	6	i	/

Following part.
SMILES	CSC inhib	MT1-MMP act inh	MT1-MMP act inh RFP	UUG fidelity	PABP FP inh	eIF4H inh	Rce1 inh	Env fusion inh	others
CCCS(=O)(=O)Nc1c(C(=O)OC)[nH]c2ccccc12	-11	-6	1	0	-2	-5	i	/
CCCCN(C)CCNC(=O)CN1C(=O)CSc2ccc(S(=O)(=O)N3CCCCC3)cc21	-7	-5	2	-20	/	/	i	7
COc1c(Br)cc(Br)cc1/C=C1/C(=O)N=C(N)N1C	0	-4	-2	-28	6	-11	i	-13
CCn1c(COc2ccc(Cl)cc2)nnc1SCC(=O)Nc1ccc2c(c1)OCCO2	-1	2	0	-15	-10	9	i	/
COc1ccccc1/C=C/C(=O)NNC(=O)c1cc(C)oc1C	13	4	1	-19	/	/	i	-21
COc1ccnc(Oc2ccc(F)cc2)c1C(=O)N/C=N/OCc1cccc(F)c1	1	5	-2	-13	5	-9	i	2
Cc1ccc(-c2n[nH]c(=S)n2/N=C/c2c(C)nn(-c3ccccc3)c2C)cc1	-8	1	-6	/	4	4	i	3
CCOc1ccc(C(=O)N[C@H](C(=O)Nc2ccccc2OC)C(C)C)cc1	6	-1	1	8	12	-8	i	15
Cc1ncsc1CCOC(=O)c1ccccc1	-3	-1	0	/	-2	-6	/	-15
O=C(O)Cn1nnnc1-c1ccc(F)cc1	-9	3	4	/	8	-12	i	/
O=c1c(Cl)c(Nc2cccc(Cl)c2)cnn1-c1nc2ccccc2s1	7	3	-2	/	5	-7	i	-119
COc1cccc(/C=N/NC(=O)c2ccc(N3CCCC3=O)cc2)c1	38	-4	-6	-18	-8	-4	i	-97
Cc1[nH]c2ccc(Br)cc2c(=O)c1CN1CCOCC1	/	2	6	-4	0	3	i	/
O=CN1CCN(C(=O)c2ccc3c(c2)OCO3)CC1	-17	0	3	-15	-3	5	i	11
N#Cc1ccc2ccn(CC(=O)N3CCCc4ccccc43)c2c1	0	2	-6	-8	3	5	i	/
O=C(O)C1CCCCN1S(=O)(=O)c1ccccc1 (centres undefined)	-11	1	2	-17	0	-3	i	/
NC(=O)Cn1c(=O)n(CCc2ccccc2)c(=O)c2c3c(sc21)CCCC3	-14	2	1	-16	-3	-5	i	20
O=C1CC(N2CCSCC2)C(=O)N1c1ccc(F)cc1 (centres undefined)	-5	0	1	6	0	9	i	5
CC1(C(=O)NCc2cccnc2)CCC(=O)N1Cc1cccs1 (centres undefined)	-14	-1	0	0	-1	-2	i	17
O=[N+]([O-])c1ccc(Oc2cccc(F)c2)c2ccncc12	-2	-10	-12	/	12	10	i	/
COc1cc(/C=C(\C#N)C(=O)Nc2cccc(C(=O)O)c2)ccc1OCc1ccc(C)cc1	10	-2	-3	7	12	17	i	-61
COc1ccc(CC2(CO)CCN(Cc3cccc4nccnc34)CC2)cc1	-19	0	3	-10	-4	-2	i	-5
Cc1ccc(CNC(=O)CSCc2ccccc2)cc1	-23	-1	4	-12	-2	-6	i	0
O=C(NCC1CC1)c1onc(CSc2ccncc2)c1C(=O)NCC1CC1	-5	-9	-5	-10	4	2	i	-3
COCc1cc(C)nc2sc(C(=O)Nc3ccccc3C)c(N)c12	-5	-5	-3	1	6	-7	i	-2
Cc1nc(Nc2ccccc2F)c2oc3ccccc3c2n1	-11	-1	2	-8	4	-6	i	1
COc1ccc(OC)c(NC(=O)Cc2coc3cc(C)cc(C)c23)c1	-14	3	0	-15	-8	1	i	3
Fc1ccc(N2CCN(Cc3ccccn3)CC2)cc1	-16	3	4	/	32	-5	i	-1
Cc1[nH]c2ccc(C(=O)NC3CCC(C)CC3)cc2c1C (centres undefined)	36	7	1	-15	-2	8	i	-32
Cc1cc(N2CC(C)OC(C)C2)nc2ccccc12 (centres undefined)	-4	-1	-3	14	23	3	i	4
CCOc1ccc(NC(=O)COc2cccc3cccnc23)cc1S(=O)(=O)N1CCCC1	/	-7	2	-17	/	/	/	3
Cc1ccc(-c2nn3c(C)nnc3s2)cc1NC(=O)c1ccc(Br)o1	/	2	4	-12	-2	0	i	-27
Cc1nc2nc(COc3ccccc3)nn2c(C)c1Cl	0	0	6	-19	6	0	/	/
OCC[C@H]1C[C@@H](O)[C@H](O)[C@@]2(Cc3ccccc3CO2)O1	-8	2	4	-17	/	/	/	-3
COC(=O)c1nc2n(n1)C(c1ccc([N+](=O)[O-])cc1)C(C(=O)Nc1ccc(Cl)cc1)=C(C)N2 (centres undefined)	-1	2	-13	/	2	-5	i	/
Cc1cccc(C)c1OCc1n[nH]c(=S)n1-c1ccccc1	-6	-1	4	-20	-7	7	i	8
Cn1cnc([N+](=O)[O-])c1Nc1cccc(O)c1	-12	2	0	-20	4	3	i	/
COc1cc(C)ccc1OCCCON1C(=O)CCC1=O	-6	1	2	-12	-8	-3	i	-55
COC(=O)c1cc2oc(C)cc2n1CC(=O)N1CCCc2ccccc21	-8	-4	-1	3	8	10	i	/
CC(C)(C)CC(=O)Nc1ccc(-c2cn3cccnc3n2)cc1	-11	4	4	-19	1	-4	i	-23
CCOc1ccc(N(CC(=O)Nc2cc(C)cc(C)c2)S(C)(=O)=O)cc1	7	-2	-14	2	3	2	i	-6
CCNC(=O)C1(C)CCCN(C(=O)c2nc(C)oc2C)C1 (centres undefined)	/	8	5	-11	/	/	/	-19
O=C(CSc1ccc2ccccc2n1)NC1CC1	/	2	6	5	/	/	/	-16
CN(C)c1ccc(NC(=O)Nc2cccc3ccccc23)cc1	-2	5	5	-6	12	-1	i	-10
COc1ccc(S(=O)(=O)c2nnn(-c3cccc(Cl)c3)c2N)cc1	0	1	0	/	-21	-7	i	-1
O=C(NCc1nc2ccccc2[nH]1)C1=C[C@@H](c2csc3ccccc23)C[C@@H](OCCCCO)O1	3	0	-2	-23	-15	-4	i	-36
Cc1c(NC(=O)Nc2ccc(Cl)c(Cl)c2)sc(=S)n1C	30	10	4	/	/	/	i	/
Oc1cccc(C(=S)N2CCC(Cc3ccccc3)CC2)c1	39	0	-1	-26	1	-9	i	-6
Cc1nc(Nc2ccc(S(=O)(=O)N3CCCCC3C)cc2)c2nnn(Cc3ccccc3)c2n1 (centres undefined)	6	-18	-34	/	-3	-2	i	/
COCCn1c(-c2ccc(OC)cc2)cnc1SCC(=O)Nc1cc(C)on1	-5	-5	-7	-8	16	0	i	-2
The list continues:
SMILES	CSC inhib	MT1-MMP act inh	MT1-MMP act inh RFP	UUG fidelity	PABP FP inh	eIF4H inh	Rce1 inh	Env fusion inh	others
CCOC(=O)c1ccc(NC(=S)Nc2ccccc2)cc1	19	1	4	/	5	-10	/	10
N/C(=N\OC(=O)CC1CCCCC1)c1ccccn1	-9	0	-1	-82	8	-10	i	-47
O=C(O)c1ccc(-n2cncn2)c([N+](=O)[O-])c1	-3	0	2	-12	2	-9	i	-1
O=C(NN1C(=O)/C(=C/c2ccc(O)c([N+](=O)[O-])c2)SC1=S)c1ccccc1Cl	8	28	6	/	4	-3	i	0
CCOc1ccc(-n2c(SCc3cc(=O)oc4cc(C)ccc34)nnc2-c2cccnc2)cc1	-3	-4	-5	-7	3	-2	i	/
CCOc1ccc(NS(=O)(=O)c2ccc(NC(=O)c3ccccc3C(=O)O)cc2)cc1	-4	0	2	/	/	/	/	6
COC(=O)C1=C(C)N(Cc2ccccc2)C(=NCCc2ccccn2)N[C@H]1c1cccc(C(F)(F)F)c1	4	-7	-4	6	/	/	/	80*
Cn1c(CNC(=O)c2ccco2)nnc1SCC(=O)Nc1c(F)cc(F)cc1Br	1	-3	0	/	4	-3	i	-26
COc1cccc(NC(=O)CC2S/C(=N\S(=O)(=O)c3ccccc3)N(c3ccccc3)C2=O)c1 (centres undefined)	-7	1	3	-6	8	10	i	2
O=C(c1ccc(CN2CCc3ccccc3C2)cc1)N1CCN(c2ccccc2)CC1	2	2	-2	/	4	1	i	0
COc1ccc(-c2cn3nc(SCC(=O)NC4CCCCC4)ccc3n2)cc1	-15	-1	0	-19	-7	7	i	-29

Bioassay records from PubChem BioAssay.
